Assay outcomes from PubChem.
PrP UTR inh: suppresses PrP 5' UTR mRNA reporter expression; cell-based PrP 5' UTR mRNA reporter, plate reader; inhibition, % (no concentration beside the values); 340,000 compounds, 0.35% hits;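 active = every replicate at 50% or more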;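 note: 0 = median of the neutral control wells; tested in H4 reporter cells; numbers are from one replicate; inactives centre near -14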
Sa RN4220 lethal: kills Staphylococcus aureus RN4220; S. aureus RN4220 growth, OD600, 16 h; 330,000 compounds, 0.33% hits; inhibition, % (no concentration beside the values);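 active = z-score of -3 or lower and OD600 up to 0.18 on both plates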;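 note: plate controls were untreated cells for no effect and reference antibiotic for full effect; stock transfer was 100 nL into about 80 µL; one replicate is shown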
Mtb hypoxia rep: reduces hypoxia-regulated biosensor signal in M. tuberculosis | M. tuberculosis hypoxia-regulated fluorescent reporter, fluorescence | 300,000 compounds, 0.1% hits | fluorescence inhibition, % (test concentration not listed);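 active = 35 to 45% if threefold the growth effect, above 45% if 1.5-fold the growth effect; inactive = the rest, general growth blockers included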;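 note: wells of about 50 µL received 100 nL stock; 0% = vehicle wells and 100% = reference inhibitor wells; whole bacteria with a GFP reporter of the hypoxia response; strong numbers were not always called active; many hits fall short of the cut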
Sa ugtP lethal: growth inhibition of S. aureus ugtP deletion strain. growth inhibition, % (concentration not given with the values). 330,000 compounds, 0.54% hits. S. aureus RN4220 ugtP deletion, OD600 growth, 16 h; some inactives read as strong as hits;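 active = z-score under -3 and OD600 up to 0.15 on both plates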;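 note: plate controls were untreated wells for no effect and antibiotic for full effect; wells of about 80 µL received 100 nL stock; the first replicate is given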
Autofluor counter: compound fluorescence in toxin protease inhibitor counterscreen. fluorescence intensity (concentration not given with the values). 360,000 compounds, 3.1% hits. compound autofluorescence counterscreen, microsphere flow cytometry; active compounds read high. AID 624483;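 active = at least 3 SD above the mean of all compounds, about 16000 in these data; inconclusive = too few beads counted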;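 note: 100 nL of 1 mM stock went into each well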
BJeLR viability: kills HRASV12-expressing BJeLR cells; BJeLR (HRASV12) viability, CellTiter-Glo ATP luminescence, 48 h; reference of the scale not given here; inhibition, % (concentration not given with the values); AID 1554; 300,000 compounds, 0.17% hits;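 active = replicate mean above 50%; inconclusive = above 50% but judged a plate artefact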;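 note: 50 nL library stock added to about 25 µL; numbers are from one replicate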
Mtb hypoxia rep growth: further read-out of Mtb hypoxia rep, marked with its call; growth inhibition, %; measured here: M. tuberculosis growth (absorbance);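 0% = vehicle and 100% = reference antibiotic; read after six days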
* marks the source's active call; other numbers are inactive results; ? = inconclusive; / = not tested or not shown; & = joins results of further samples.

SMILES	PrP UTR inh	Sa RN4220 lethal	Mtb hypoxia rep	Mtb hypoxia rep growth	Sa ugtP lethal	Autofluor counter	BJeLR viability
O=C(Nc1ccc(Cl)c(Cl)c1)Nc1ccc(N2CCCC2)c(S(=O)(=O)Nc2ccccc2Cl)c1	-22	20	/	/	-22	4015	0
COc1ccc(-c2nc(N)n(C(=O)c3ccccc3)n2)cc1	-15	5.2	6	6	3	4452	-4
CCOc1ccc(NC(=O)CN2CCCC2c2cccs2)cc1S(=O)(=O)N1CCCC1 (stereo not given)	-5	0.4	12	7	3	4313	/
S=c1[nH]nc(-c2cc(-c3ccccc3)n[nH]2)n1/N=C/c1cccs1	-78	/	/	/	/	4466	14
CC(C)(C)n1nc(Cc2cccc3ccccc23)c2c(N)ncnc21	5	1.9	4	5	-1	2867	9
Cn1c(=O)c2c(nc(Br)n2C)n(C)c1=O	-16	3.1	/	/	3	2319	-2
CCOC(=O)c1c(NC(=O)c2ccc(S(=O)(=O)N(C)CC3CCCO3)cc2)sc2c1CC(C)(C)NC2(C)C (stereo not given)	-8	-2.2	1	-5	-1	5712	3
Cc1ccc(Nc2nc(N)c([N+](=O)[O-])c(N3CCCC(C)C3)n2)cc1C (stereo not given)	-4	-4.2	12	2	16	7051	-6
CC(C)COc1cccc(-c2cc(C(=O)NN=Cc3ccncc3)c3ccccc3n2)c1	/	17	-6	9	-5	/	/
Cc1ccccc1OCC(O)CN1CCN(c2ccc(Cl)cc2)CC1 (stereo not given)	-14	1.3	8	12	-3	4218	1
COCCCNC(=O)C1CC(=O)OC1c1ccc(OC)c(OC)c1 (stereo not given)	-9	-0.1	6	6	3	4350	-14
Cn1nc(-c2ccc(C(=O)Nc3cccnc3)cc2)c2ccccc2c1=O	-1	2.3	-2	8	3	4542	2
CN(C)c1ccc(-c2cccc(C3CC=CC4C3C(=O)N(Cc3ccccc3)C4c3ccc4ccccc4c3)c2)cc1 (stereo not given)	-21	9.7	5	8	-16	2886	6
CCOC(=O)C1=C(Nc2ccccc2)CC(C)(O)C(C(=O)OCC)C1c1ccc(Cl)cc1 (stereo not given)	-19&-14	-12&-9.1	4&-2	11&6	7&3	4041&2204	/
Cc1nc(N)c(C#N)c(-c2cccnc2)c1C	8	-0.6	-7	1	-2	3740	-8
COc1ccc(N2CCN(CCCNC(=O)c3cc4sccc4n3C)CC2)cc1	-18	2.0	13	3	6	8039	8
CCCCCC(=O)Nc1cccc(C2=NOC3(C2)CC(C(N)=O)N(C(=O)c2cc([N+](=O)[O-])cc([N+](=O)[O-])c2C)C3)c1 (stereo not given)	/	0.9	3	13	-16	/	/
Cc1cccc(NC(=O)COc2ccc(/C=N\n3cnnc3)cc2)c1	-14	/	/	/	/	2625	12
CC1CC(C)CN(CCCNC(=O)CCC(=O)N2CCOc3ccccc32)C1 (stereo not given)	-1	-3.0	2	-2	11	4272	2
O=C(CNC(=O)c1sc2ccccc2c1Cl)OCc1ccccc1	-11	8.4	2	1	4	5541	-6
CCOC(=O)Cc1csc(N/N=C/c2ccc(Cl)cc2)n1	66*	/	/	/	/	4461	-4
CC(C)CCNC(=O)C1CC(c2ccccc2C(F)(F)F)=NO1 (stereo not given)	-2	3.5	/	/	1	3388	-3
Cc1ccc(CCNC(=O)C2CCCN(c3ncnc4c3nc3n4CCCCC3)C2)cc1 (stereo not given)	-25	5.0	1	2	9	4652	-2
CC(Oc1ccc(Cl)cc1Cl)c1nc(-c2ccccn2)no1 (stereo not given)	-105	9.5	7	7	-1	8102	3
CN1C2C=C(N(CCc3c[nH]c4ccccc34)C(=O)c3ccc(Cl)cc3)CC1CC2 (stereo not given)	-17	-3.0	6	8	2	9528	-4
CCOC(=O)NCc1ccc(Cl)c(Cl)c1	-5	4.6	/	/	-1	3249	-2
CC(=NN=C(N)SC1CC(=O)N(c2ccccc2)C1=O)c1cccs1 (stereo not given)	/	14	2	9	10	/	/
CC(C)OC(=O)N(C)c1ccc(C(O)(C(F)(F)F)C(F)(F)F)cc1	-12	11	6	6	4	8174	-12
Cc1cccc(NC(=O)C2CCN(S(=O)(=O)c3c(C)[nH]c(=O)[nH]c3=O)CC2)c1	-18	4.3	9	5	11	9467	-11
COc1cc(-c2[nH]ncc2CN2CCSCC2)cc(OC)c1OC	-15	-1.0	12	1	0	4494	4
Cc1cnc(C(=O)OC(C)C(=O)NC2CCCc3ccccc32)cn1 (stereo not given)	-3	6.3	10	0	6	?	2
CCOc1ccc2ccccc2c1C=NNC(=O)c1ccc([N+](=O)[O-])cc1	/	3.0	3	4	5	/	/
O=[N+]([O-])c1ccc(OCc2cnc(Cl)s2)c([N+](=O)[O-])c1	28	4.7	9	3	-4	3983	3
CCOc1cc(C=NN2CCN(Cc3ccccc3)CC2)ccc1O	/	0.6	12	-1	4	/	/
Cc1ccc(C(C)C)c(OCCNS(C)(=O)=O)c1	-4	2.2	13	2	1	3182	-2
CN(C)S(=O)(=O)c1ccc(C(=O)OCc2nnc(-c3ccccc3)o2)cc1	-20	2.7	0	10	19	4291	-16
O=C(COC(=O)C1=Cc2ccccc2OC1)NCc1ccccc1	-6	2.8	3	1	0	4777	-3
CC1=C(C(=O)OCc2ccccc2)C(c2ccc(-c3ccccc3)cc2)NC(=O)N1CCCC(=O)O (stereo not given)	/	3.8	5	5	18	/	-5
Cc1cc(SCc2ccccc2F)nc(=O)[nH]1	-3	2.5	1	4	1	5477	-9
Cc1cc(C(=O)Nc2nc3c(s2)CCCC3)no1	-11	1.4	1	2	-8	23398*	6
Cc1ccc(SCC(=O)OCC(=O)NCc2cccs2)cc1C	-17	4.8	8	-7	1	6149	6
O=C(COc1ccc(Br)cc1)NN=C1SCC(=O)N1Cc1ccccc1	/	2.9	2	8	-5	/	/
C=CCn1c(C)nnc1SCC(=O)NC1CCCCC1	-33	3.3	12	-11	11	4370	-8
O=C(CSc1ccc(C=NNC(=O)c2cccc(F)c2)o1)Nc1ccccc1	/	-7.9	-3	-6	-4	/	/
Cn1cnnc1SCc1ccc(C#N)cc1	-16	3.2	/	/	-5	4198	-2
Cc1nn2c(N3CCN(CCO)CC3)c3c(nc2c1-c1ccccc1)CCCC3	-3	-3.3	10	4	-3	4385	-11
CC(OC(=O)C1CCCCC1)C(=O)Nc1ccc(S(N)(=O)=O)cc1 (stereo not given)	10	1.5	4	10	1	8283	/
CC(=NCC1CCCO1)c1c(O)n(-c2ccc(Cl)cc2)c(=O)[nH]c1=O (stereo not given)	-2	-1.1	-1	13	-2	9839	1

Part of the list above in order of SMILES length, highest first:
SMILES	PrP UTR inh	Sa RN4220 lethal	Mtb hypoxia rep	Mtb hypoxia rep growth	Sa ugtP lethal	Autofluor counter	BJeLR viability
CC1=C(C(=O)OCc2ccccc2)C(c2ccc(-c3ccccc3)cc2)NC(=O)N1CCCC(=O)O (stereo not given)	/	3.8	5	5	18	/	-5
CN(C)S(=O)(=O)c1ccc(C(=O)OCc2nnc(-c3ccccc3)o2)cc1	-20	2.7	0	10	19	4291	-16
CCOc1ccc2ccccc2c1C=NNC(=O)c1ccc([N+](=O)[O-])cc1	/	3.0	3	4	5	/	/
Cc1nn2c(N3CCN(CCO)CC3)c3c(nc2c1-c1ccccc1)CCCC3	-3	-3.3	10	4	-3	4385	-11
O=C(CSc1ccc(C=NNC(=O)c2cccc(F)c2)o1)Nc1ccccc1	/	-7.9	-3	-6	-4	/	/
CC(OC(=O)C1CCCCC1)C(=O)Nc1ccc(S(N)(=O)=O)cc1 (stereo not given)	10	1.5	4	10	1	8283	/
O=C(COc1ccc(Br)cc1)NN=C1SCC(=O)N1Cc1ccccc1	/	2.9	2	8	-5	/	/
Cc1cnc(C(=O)OC(C)C(=O)NC2CCCc3ccccc32)cn1 (stereo not given)	-3	6.3	10	0	6	?	2
COc1cc(-c2[nH]ncc2CN2CCSCC2)cc(OC)c1OC	-15	-1.0	12	1	0	4494	4
O=C(COC(=O)C1=Cc2ccccc2OC1)NCc1ccccc1	-6	2.8	3	1	0	4777	-3
CCOc1cc(C=NN2CCN(Cc3ccccc3)CC2)ccc1O	/	0.6	12	-1	4	/	/
Cc1ccc(SCC(=O)OCC(=O)NCc2cccs2)cc1C	-17	4.8	8	-7	1	6149	6
Cc1cc(C(=O)Nc2nc3c(s2)CCCC3)no1	-11	1.4	1	2	-8	23398*	6
C=CCn1c(C)nnc1SCC(=O)NC1CCCCC1	-33	3.3	12	-11	11	4370	-8
Cc1cc(SCc2ccccc2F)nc(=O)[nH]1	-3	2.5	1	4	1	5477	-9
Cn1cnnc1SCc1ccc(C#N)cc1	-16	3.2	/	/	-5	4198	-2

The listing continues.
SMILES	PrP UTR inh	Sa RN4220 lethal	Mtb hypoxia rep	Mtb hypoxia rep growth	Sa ugtP lethal	Autofluor counter	BJeLR viability
COc1ccc(-c2cnc(NCc3cc4c(cc3[N+](=O)[O-])OCO4)n2C)cc1	38	0.0	-7	0	1	2376	17
CCN(CC)C(=O)c1sc(NC(=O)c2cccs2)c(C#N)c1C	-33	6.6	5	15	4	4703	2
Cc1nc(-c2ccccc2)[nH]c(=O)c1Oc1ccc(Cl)cc1Cl	-16	-3.1	0	-6	-10	3914	2
CCOC(=O)Nc1ccc(S(=O)(=O)N(C)C(C)C)cc1	-19	3.5	20	5	0	10162	-4
CCCN(CC(=O)Nc1ccccc1C)C(=O)c1ccc(C(=O)c2ccccc2)cc1	-22	0.9	7	1	0	6168	2
CN(C)CCNC(=O)C=NO	/	2.5	7	4	7	/	/
CC(=O)Oc1ccc(/C=N\NC(=O)c2cc3c(ccc4ccccc43)o2)cc1	-2	/	/	/	/	7445	9
O=S(=O)(c1ccccc1)N1CCN(C(=S)NCCCN2CCOCC2)CC1	1	3.9	13	7	13	2120	-3
O=C(Nc1c2c(nn1-c1ccc(F)cc1)CS(=O)C2)C12CC3CC(CC(C3)C1)C2 (stereo not given)	-13	2.4	3	12	2	2727	2
CC(=O)c1c(C)[nH]c(C(=O)CN2CCN(S(=O)(=O)c3ccccc3F)CC2)c1C	14	3.7	6	10	2	3426	/
CC(C)(C)N(Cc1ccccc1)C(=O)COC(=O)C1CCN(c2ccc(C(F)(F)F)cn2)CC1	-32	-0.1	1	2	8	8294	/
CCOC(=O)c1c(N)nn(C(=O)c2ccccc2F)c1-c1ccc(OC)cc1	-6	8.0	11	6	2	3958	2
O=C(COC(=O)CCc1nc2ccccc2c(=O)[nH]1)Nc1ccc(OC(F)(F)F)cc1	-20	7.6	-3	4	1	8840	/
CCCN1C(=O)SC(CC(=O)Nc2ccc(C)cc2)C1=O (stereo not given)	-15	9.1	11	12	10	3105	-3
Cc1ccc(C(=O)Nc2ccccc2C(=O)NC2CCCCC2)cc1S(=O)(=O)N1CCOCC1	-7	4.7	9	5	3	16566*	-2
Cn1cccc1CC(=O)NNC(=S)Nc1ccccc1Cl	-15	4.4	1	0	9	2023	-5
O=C(c1cccc(C(=O)N2CCN(Cc3ccccc3)CC2)c1)N1CCN(Cc2ccccc2)CC1	-9	-1.4	/	/	4	2522	10
c1ccc(-c2oc3ncnc(NCCCN4CCOCC4)c3c2-c2ccccc2)cc1	-5	3.2	14	13	-8	26085*	-3
O=C1N/C(=N\S(=O)(=O)c2ccccc2)S/C1=C\c1cc([N+](=O)[O-])ccc1O	-15	/	/	/	/	6169	8
CC(C)(C)C(=O)Nc1sc2c(c1C#N)CCC2	-12	7.0	0	-3	11	2366	11
